Source: PubChem BioAssay (several laboratories)
Mtb hypoxia inh = PubChem AID 1159583. fluorescence inhibition, % (no concentration beside the values). 300,000 compounds, 0.1% hits. M. tuberculosis hypoxia-regulated fluorescent reporter, fluorescence;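 active = 35 to 45% if threefold the growth effect, above 45% if 1.5-fold the growth effect; inactive = the rest, general growth blockers included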;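 note: wells of about 50 µL received 100 nL stock; 0% = vehicle wells and 100% = reference inhibitor wells; whole bacteria with a GFP reporter of the hypoxia response; strong numbers were not always called active; many hits fall short of the cut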
BJeLR lethal = MLPCN primary cell-based screen for lethality selective to Ras in HRASV12 cells | 300,000 compounds, 0.17% hits | inhibition, % (no concentration beside the values) | AID 1554, 2009 | BJeLR (HRASV12) viability, CellTiter-Glo ATP luminescence, 48 h; reference of the scale not given here;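 active = replicate mean above 50%; inconclusive = above 50% but judged a plate artefact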;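 note: 50 nL library stock added to about 25 µL; numbers are from one replicate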
Bead autofluor = counter-screen for toxin protease inhibitors: compound fluorescence | compound autofluorescence counterscreen, microsphere flow cytometry; stronger effect = higher value | 360,000 compounds, 3.1% hits | AID 624483 | fluorescence intensity (concentration not given with the values);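 active = at least 3 SD above the mean of all compounds, about 16000 in these data; inconclusive = too few beads counted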;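 note: 100 nL of 1 mM stock went into each well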
ugtP null kill = growth inhibition of ugtP-null S. aureus, primary screen, RN4220 ugtP deletion, OD600 | 330,000 compounds, 0.54% hits | 16 h; some inactives read as strong as hits | growth inhibition, % (concentration not given with the values);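 active = z-score under -3 and OD600 up to 0.15 on both plates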;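 note: plate controls were untreated wells for no effect and antibiotic for full effect; wells of about 80 µL received 100 nL stock; the first replicate is given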
Sa RN4220 lethal = growth inhibition of S. aureus RN4220, primary screen, OD600. AID 1259311, 2017. 330,000 compounds, 0.33% hits. 16 h. inhibition, % (test concentration not listed);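 active = z-score of -3 or lower and OD600 up to 0.18 on both plates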;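 note: plate controls were untreated cells for no effect and reference antibiotic for full effect; stock transfer was 100 nL into about 80 µL; one replicate is shown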
PrP 5UTR inh = inhibition of PrP 5' UTR reporter expression; 340,000 compounds, 0.35% hits; inhibition, % (concentration not given with the values); cell-based PrP 5' UTR mRNA reporter, plate reader;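 active = every replicate at 50% or more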;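 note: 0 = median of the neutral control wells; tested in H4 reporter cells; numbers are from one replicate; inactives centre near -14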
Mtb hypoxia inh growth = further read-out of Mtb hypoxia inh, marked with its call; growth inhibition, %; measured here: M. tuberculosis growth (absorbance);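 0% = vehicle and 100% = reference antibiotic; read after six days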
* = called active by the depositor; ? = inconclusive; . = not tested or not shown. Not a hit list. Share with any hit: about 4%.

Values run as follows: Bead autofluor | Mtb hypoxia inh | PrP 5UTR inh | Sa RN4220 lethal | ugtP null kill | BJeLR lethal | Mtb hypoxia inh growth
Cn1nccc1C(=O)OCC(=O)Nc1nc(-c2ccccc2)cs1
→ 22484* | -19 | -15 | -12 | -16 | . | 5
O=C(c1ccncc1)N1CCN(C2CCCCC2)CC1
→ 4934 | 10 | -10 | 5.9 | 2 | 5 | -1
CCCn1c(=O)c(C(=O)Nc2c(C)n(C)n(-c3ccccc3)c2=O)c(O)c2ccccc21
→ 8667 | -1 | -26 | -0.1 | 0 | . | -5
COc1cc2sc3ccc(C#Cc4ccccn4)cc3c(=O)c2cc1OC
→ 3725 | -11 | -10 | 2.5 | -2 | -1 | 9
COc1cc(CNCc2ccncc2)cc(OC)c1OC
→ 3552 | 2 | -15 | 4.1 | 7 | -5 | 6
Cn1c(NC(=O)C[n+]2cc(-c3ccccc3)n3c2CCC3)cc(=O)n(C)c1=O
→ 2542 | -6 | -10 | -2.0 | -2 | 11 | 6
Cn1c(=O)c2c(=O)cc(N)[nH]c2n(C)c1=O
→ 4599 | -3 | -26 | 0.5 | -1 | -6 | 4
COc1ccc(C(=O)NCCN2CCOCC2)cc1OC
→ 3224 | 1 | -7 | -4.4 | -5 | -2 | 3
CCSc1cc(N2CCCC2)nc(-c2ccccc2Cl)n1
→ 2063 | . | -16 | . | . | 7 | .
CCOC(=O)C(=CNc1ccc(C(F)(F)F)cc1Cl)C(=O)OCC
→ 3306 | 5 | -8 | 6.7 | 13 | -15 | 4

Remaining list, next part
Values run as follows: Bead autofluor | Mtb hypoxia inh | PrP 5UTR inh | Sa RN4220 lethal | ugtP null kill | BJeLR lethal | Mtb hypoxia inh growth
COc1ccc(NC(=S)Nc2cccc(Cl)c2)cc1OC
→ 2543 | 11 | -21 | 0.2 | -6 | -4 | 19
COc1cc2c(cc1NC(=O)CSc1ccccc1)oc1ccccc12
→ 2795 | 0 | -25 | 27 | 8 | 12 | 2
CCOC(=O)C1=C(N)n2c(sc(=Cc3ccco3)c2=O)=C(C(=O)OC)C1c1ccco1 (stereo unspecified)
→ . | -2 | . | 1.3 | -9 | . | -7
CC(C)CNS(=O)(=O)c1ccc(CCC(=O)N2CCN(Cc3ccc4c(c3)OCO4)CC2)cc1
→ . | 20 | 1 | 3.0 | 2 | 3 | 14
O=C(Cc1ccccc1)N1CCN(Cc2cccc(Cl)c2)CC1
→ 4024 | 13 | -74 | 1.3 | 12 | 9 | 3
Cc1nn(CC(=O)N2CCC(C)CC2)c(=O)c2nn(-c3ccccc3)c(C)c12
→ 5570 | 5 | 3 | -2.3 | 8 | -10 | 3
Cc1ccc(-c2nc(C#N)c(N3CCCCC3)o2)cc1
→ 5617 | -12 | -6 | 2.1 | 3 | -3 | 2
CC(=O)Nc1cc(NC(C)=O)cc(C(=O)N2CCCC3CCCCC32)c1 (stereo unspecified)
→ 3845 | 12 | -16 | 4.6 | -3 | -10 | 4
COc1ccc(OCC(=O)Nc2ccc3c(c2)nc(CCN2CCCC2)n3C)cc1
→ 9896 | 16 | -13 | 3.9 | 5 | -3 | 13
Cc1cccc(NS(=O)(=O)c2ccc(C)c(C(=O)NCCCN3CCOCC3)c2)c1
→ ? | 2 | -13 | 1.7 | 3 | . | -6

Carrying on:
Values run as follows: Bead autofluor | Mtb hypoxia inh | PrP 5UTR inh | Sa RN4220 lethal | ugtP null kill | BJeLR lethal | Mtb hypoxia inh growth
COc1cc(C(C(=O)NC2CCCCC2)N(Cc2ccco2)C(=O)c2cnccn2)cc(OC)c1OC (stereo unspecified)
→ 2496 | -4 | -19 | 2.9 | 2 | 7 | -1
CCCCN(C)C(=O)Cn1cnc2sc(C)cc2c1=O
→ 2656 | . | -42 | -2.6 | -2 | -2 | .
Cc1nc(Nc2ccc(F)cc2)nc(Nc2ccc(F)cc2)c1[N+](=O)[O-]
→ 6001 | 2 | -11 | -3.4 | -7 | 13 | -3
Cc1cc(S(=O)(=O)NCC(C)C)ccc1OCC(=O)N1CCN(Cc2ccccc2)CC1
→ 3586 | . | -13 | -2.0 | -2 | -5 | .
COc1ccc(Cc2nnc(Nc3ccccc3)s2)cc1Br
→ 10348 | . | -8 | . | . | -1 | .
COc1cc(C=NNc2nncn2N=Cc2ccc(O)c(OC)c2)ccc1O
→ . | 1 | . | 4.0 | 5 | . | 1
CCc1cc(C(=O)OC)c(NC(=O)c2ccoc2C)s1
→ 6184 | 12 | -17 | 5.4 | -2 | -9 | 0
CCCC(=O)Nc1nnc(-c2ccccc2)o1
→ 4324 | 13 | 3 | 3.1 | 9 | 0 | 2
O=c1[nH]c(CN2CCN(c3ccc(O)cc3)CC2)nc2scc(-c3ccc(Cl)cc3)c12
→ 4894 | -4 | -4 | 4.2 | 7 | 30 | -7
CC1(C)CC(=O)/C(=C(\O)Cc2ccccc2)C(=NCCc2ccccc2)C1
→ . | 7 | . | 5.3 | -8 | . | 5

Next section.
Values run as follows: Bead autofluor | Mtb hypoxia inh | PrP 5UTR inh | Sa RN4220 lethal | ugtP null kill | BJeLR lethal | Mtb hypoxia inh growth
NNC(=O)c1ccc(COc2ccc3ccccc3c2)cc1
→ 4171 | 5 | -32 | 2.8 | 7 | 5 | -2
CN1CCN(c2c(F)cc3c(=O)c(C(=O)O)cn4c3c2OCN4C)CC1
→ 5243 | . | -15 | 99* | 99* | -7 | .
COc1ccc(S(=O)(=O)N2CCCC(C(F)(F)F)C2)cc1 (stereo unspecified)
→ 4444 | 7 | -13 | 4.6 | 5 | 0 | -7
O=[N+]([O-])c1ccc2ncnc(N3CCN(Cc4ccc5c(c4)OCO5)CC3)c2c1
→ 3797 | 3 | -2 | 2.8 | 15 | -12 | 12
O=C(NNS(=O)(=O)c1ccc(Cl)cc1)c1sccc1-n1cccc1
→ 3706 | -9 | -14 | 9.5 | -25 | -3 | 15
COc1ccc(C(=O)Nc2ccc(N3CCOCC3)cc2)cc1S(=O)(=O)N1CCCC1
→ 4265 | 3 | -13 | -0.6 | -1 | . | 0
CCOc1ccc(-n2c(SCC(=O)Nc3ccc4c(c3)OCCO4)nc3c(c2=O)SCC3)cc1
→ 3686 | 2 | -22 | 3.6 | 10 | . | 2
O=C(c1cnccn1)N(Cc1cccs1)C1(C(=O)NC2CCCC2)CCCCC1
→ 2522 | -2 | -25 | 1.4 | 3 | -8 | -3
CN(C)c1cc[n+](CC(=O)c2ccc(-c3ccccc3)cc2)cc1
→ 2070 | 15 | 3 | 3.8 | 8 | 15 | 15
O=C(CSc1nnc(-c2ccc(Cl)s2)o1)N1CCc2ccccc21
→ . | . | . | 4.3 | -10 | -6 | .

(next part)
Values run as follows: Bead autofluor | Mtb hypoxia inh | PrP 5UTR inh | Sa RN4220 lethal | ugtP null kill | BJeLR lethal | Mtb hypoxia inh growth
COC(=O)C1=C(c2cc3ccccc3o2)CC2CCC1N2C(=O)N1CCCC1 (stereo unspecified)
→ . | 0 | . | 12 | 9 | . | -8
COc1ccc(CN2CCC(=O)N([C@H](CO)Cc3ccccc3)CC2)cc1
→ 4231 | . | -17 | . | . | -3 | .
CCCCOc1ccc(C(=O)OCC(=O)Nc2cc(C)on2)cc1
→ 4382 | 10 | -8 | -0.2 | 4 | -24 | 14
O=C(O)c1ccccc1NN=Cc1ccccc1
→ 4027 | 3 | -89 | 2.6 | -10 | . | 7
CCN(c1ccccc1)S(=O)(=O)c1cccc(C(=O)NCc2ccccc2CN2CCOCC2)c1
→ 3877 | -6 | -10 | 1.4 | -7 | . | 8
CC(C)CC(=O)c1c[nH]c(C(=O)O)c1
→ 4469 | 12 | -18 | 2.1 | 6 | . | 4
O=C(Nc1ccc(Cl)c(Cl)c1)Nc1ccccc1O
→ 4445 | 5 | -83 | 23 | 36 | -1 | 0
CC(/C=C/c1ccc2c(c1)OCO2)=NNC(=O)c1ccncc1
→ . | 3 | . | 4.3 | 9 | . | 12
O=C(CBr)Nc1c2c(nn1-c1ccccc1)CSC2
→ 4682 | . | -9 | . | . | -12 | .
O=C(NCc1ccc(Cl)cc1)C1CCN(C(=O)Cc2ccccc2)CC1
→ 5608 | -2 | -10 | -0.6 | 7 | 2 | 11

Additional results follow:
Values run as follows: Bead autofluor | Mtb hypoxia inh | PrP 5UTR inh | Sa RN4220 lethal | ugtP null kill | BJeLR lethal | Mtb hypoxia inh growth
O=C(CC1N=C(Cc2ccccc2)NNC1=O)N/N=C/c1ccc([N+](=O)[O-])cc1 (stereo unspecified)
→ 5091 | . | -13 | . | . | 8 | .
COC(=O)c1ccc(COC(=O)CCC(=O)c2cccs2)cc1
→ 2296 | 0 | -31 | 3.9 | 3 | -6 | 3
COc1cccc(OC)c1C(=O)NC(=S)NCc1cccnc1
→ ? | 9 | -11 | 5.1 | 17 | -12 | -1
CC(C)(CNC(=O)/C=C/c1ccc(F)cc1)CNC(=O)/C=C/c1ccc(F)cc1
→ 7829 | 1 | -33 | -1.7 | 3 | 2 | -2
CC(=NNC(=O)c1nnn(-c2nonc2N)c1CN1CCCCCC1)c1ccc(Br)cc1
→ . | -1 | . | 3.8 | 15 | . | 4
S=c1[nH]nc(-c2ccccc2Br)n1Cc1ccccc1
→ 3185 | 3 | 6 | 12 | 10 | 8 | 2
Cc1cc(C(=O)N/N=C/c2ccc(OC(=O)c3ccccc3Br)cc2)n[nH]1
→ 4350 | . | -6 | . | . | 1 | .
O=C(NNC(=S)NCC1CCCO1)c1cc(Br)ccc1Cl (stereo unspecified)
→ ? | 5 | -12 | 1.1 | -2 | -1 | 11
CC1CCCC(=NNC(=S)Nc2ccccc2)C1 (stereo unspecified)
→ . | 8 | . | 0.4 | 16 | . | -3
CCOc1ccc(CCNC(=O)COC(=O)c2cc([N+](=O)[O-])ccc2N2CCOCC2)cc1OCC
→ 5371 | 9 | 1 | 4.1 | 4 | -7 | 13

Next part.
Values run as follows: Bead autofluor | Mtb hypoxia inh | PrP 5UTR inh | Sa RN4220 lethal | ugtP null kill | BJeLR lethal | Mtb hypoxia inh growth
COc1ccc(C)cc1NC(=O)N1CCC(CO)(CC2CCCCO2)CC1 (stereo unspecified)
→ 3623 | 14 | -26 | 11 | 3 | -11 | 8
CCOC(=O)c1cc(CC)sc1NC(=O)Cc1ccccc1
→ 20942* | 4 | -5 | 4.0 | 47 | 2 | 4
CC1=CC2=NC(=O)/C(=C/c3cccn3Cc3ccccc3)C(=N)N2O1
→ 4308 | 8 | -1 | -0.8 | 10 | -3 | 8
Cc1ccc(-n2ncc3c2CC(C)(C)CC3NC(=O)CCN2CCCCC2=O)cc1 (stereo unspecified)
→ 5142 | 5 | 8 | -0.8 | -1 | -8 | -15
O=C(O)C1CC1C(=O)N1CCN(c2ccc(Cl)c(Cl)c2)CC1 (stereo unspecified)
→ 3456 | 13 | -8 | -1.3 | 6 | 10 | 1
Cc1ccc(S(=O)(=O)Nc2cc3c(C(=O)Nc4ccccc4)c(C)oc3c3ccccc23)cc1
→ 2206 | -3 | -6 | -4.6 | -13 | 10 | 8
CCN(CC)CCN(C(=O)CN1C(=O)c2ccccc2C1=O)c1nc2cc3c(cc2s1)OCO3
→ 6243 | 6 | -13 | 3.7 | 2 | 8 | 9
O=C1CC(c2ccc(Cl)cc2)c2c(O)cc(O)cc2O1 (stereo unspecified)
→ 3826 | 3 | -20 | 0.6 | 6 | -9 | 3
C#CCOCCOCCOCCNc1nc(N2CCN(C(=O)[C@H]([C@@H](C)CC)n3cc([C@@H](N)CO)nn3)CC2)nc(N2CCN(C(=O)[C@H](CCCCN)n3cc([C@@H](N)C(C)CC)nn3)CC2)n1 (stereo partly specified)
→ 4139 | . | -21 | . | . | -2 | .
COc1ccccc1Cc1nnnn1CC(=O)O
→ 11512 | 12 | . | 2.6 | 4 | -8 | 8
